Screening results: PubChem, National Center for Advancing Translational Sciences (NCATS)
Six1-Eya2 blk – blocks human Six1 binding to Eya2; AlphaScreen GST-Six1/His-Eya2 binding, biochemical; stronger effect = lower value; control for the full effect not named in the record; activity change, % (test concentration not listed); hit rate 0.56% among 360,000; AID 651725; in the data active = activity change below about -65%; inconclusive = about -30% to -65%; inactive = above about -30%; also: % is scaled to controls: 0 for no effect and ±100 for the full control effect; compound concentration not given in the record
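Homogeneous AlphaScreen proximity assay pairing GST-Six1 with His-tagged Eya2 (added as 5X mix: 250 nM and 500 nM) in 50 mM Tris pH 8.0, 300 mM NaCl, 1 mM TCEP. Glutathione donor and nickel acceptor beads; 1 h, 37 °C, dark.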
D2 potentiator – human D2 receptor positive allosteric modulation. P14416. potentiation, % (concentration not given with the values). hit rate 0.23% among 360,000. DiscoveRx D2 beta-arrestin cells, luminescence, 90 min; 100% = 57 uM dopamine signal; active = potentiation of 50% or more; inconclusive = 30% to 50%; inactive = 30% or less;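 also: compound concentration not given in the record; tested on top of an EC20 dose of dopamine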
Target sequence (P14416 whole entry, looked up): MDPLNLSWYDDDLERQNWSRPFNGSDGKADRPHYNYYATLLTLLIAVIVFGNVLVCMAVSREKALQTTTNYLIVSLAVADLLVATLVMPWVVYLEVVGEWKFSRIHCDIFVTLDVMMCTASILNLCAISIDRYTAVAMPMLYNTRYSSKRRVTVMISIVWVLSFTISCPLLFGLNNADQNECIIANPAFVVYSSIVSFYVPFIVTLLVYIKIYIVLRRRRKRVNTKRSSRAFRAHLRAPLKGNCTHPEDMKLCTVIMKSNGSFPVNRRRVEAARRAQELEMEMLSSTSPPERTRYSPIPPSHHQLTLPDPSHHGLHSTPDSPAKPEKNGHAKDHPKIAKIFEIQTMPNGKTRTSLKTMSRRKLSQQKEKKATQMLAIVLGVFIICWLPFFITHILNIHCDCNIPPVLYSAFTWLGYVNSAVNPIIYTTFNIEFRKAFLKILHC
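D2 cells co-treated with compound plus 50 nM dopamine (EC20) for 90 min at 37 deg C to detect potentiation. Beta-arrestin recruitment was read as enzyme-fragment luminescence after 1 h at ambient temperature. Full response was set by 57 uM dopamine.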
gsp ag – agonists of gsp mutant (McCune-Albright syndrome) | gsp mutant cells, cAMP HTRF, 30 min; control for the full effect not named in the record | hit rate 0.13% among 340,000 | AID 624287 | Potency, µM (series often up to 76.9 µM), for the others: at the highest dose activation (cAMP increase), most hits filed as activators; active = well fitted activation curve with a large enough effect; inconclusive = small, poorly fitted or top-dose-only effect, or another doubt; inactive = no such curve, though single readings can be large or run the other way; cell line not stated here;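 also: phosphodiesterase inhibitor Ro 20-1724 added with compounds to block cAMP breakdown; potency is read from the fitted curve at half-maximal effect; nearly all actives have a fitted effect of over 60% in size; about a fifth of the inactives were tested at one dose only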
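Cells stably selected in G418 were plated at 2000/well, grown 16-24 hr, then given compounds in DMSO with the PDE inhibitor […] (300 uM solution added) for 30 min at 37C; cAMP was read by HTRF.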
CtBP-E1A blk – inhibitors of CtBP/E1A interaction; AlphaScreen GST-E1A/His-CtBP binding, 1536-well; stronger effect = lower value; control for the full effect not named in the record; activity change, % (no concentration beside the values); hit rate 0.49% among 340,000; in the data active means activity change below about -65%; inconclusive means about -30% to -65%; inactive means above about -30%; also: % is scaled to controls: 0 for no effect and ±100 for the full control effect; compound concentration not given in the record
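Protein mix (5X: 125 nM each GST-E1A, His-CtBP) was incubated with pinned compound 2 h at 37 deg C in dark, in 50 mM Tris pH 8.0 buffer with 300 mM NaCl. Glutathione donor and nickel acceptor beads followed; AlphaScreen signal read after 1 h.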
D2 ag – human D2 receptor agonism in beta-arrestin assay; DiscoveRx PathHunter D2 beta-arrestin, luminescence, 90 min; 100% = 57 uM dopamine signal; hit rate 0.084% among 360,000; activation, % (concentration not given with the values); P14416; in the data active = activation above about 40%; inconclusive = about 15% to 40%; inactive = below about 15%; also: compound concentration not given in the record; the text of the record calls up to 30% inactive
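Agonist mode: compounds alone added to overnight-plated D2 PathHunter cells for 90 min at 37 C, with 57 uM final dopamine (EC100) defining full response. Beta-arrestin recruitment detected by chemiluminescent reagent, read after 1 h at ambient temperature.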
gsp antagonist – gsp mutant antagonism; gsp-mutant cells, cAMP HTRF, 30 min; control for the full effect not named in the record; hit rate 0.4% among 340,000; Potency, µM (doses to about 76.9 µM), for the others: at the top dose activity change, negative = inhibition, most hits filed as inhibitors; active = falling curve of any shape with a large fitted effect; inconclusive = falling curve, mostly with a smaller effect; inactive = flat or rising curve; cell line not stated here;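 also: intracellular cAMP measured with PDE inhibitor Ro 20-1724 present during compound exposure; potency is read from the fitted curve at half-maximal effect; % is scaled to controls: 0 for no effect and ±100 for the full control effect; nearly all actives have a fitted effect of over 65% in size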
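G418-selected cells were plated in DMEM/10% FBS for 16-24 h at 37C, then treated with compounds plus the PDE inhibitor […] (300 uM solution added) for 30 min at 37C. Intracellular cAMP was measured by HTRF after 30 min lysis at room temperature.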
* hit, by the source's call; ? = inconclusive; / = not tested or not shown; & = joins results of further samples; [ ] = another dose, or the depositor's remark.

SMILES	Six1-Eya2 blk	D2 potentiator	gsp ag	CtBP-E1A blk	D2 ag	gsp antagonist
CCN(CC)S(=O)(=O)c1ccc(Cl)c(NC(=O)COc2ccc(OC)cc2[N+](=O)[O-])c1	2	0	30%	16	-2.0	8%
COCCOC(=O)c1sc(=S)n(CCOC)c1N	-12	8	27%	-23	-2.1	4%
Cc1ccc(C(=O)Nc2cccc(C(F)(F)F)c2)cc1NC(=O)c1csc(-c2ccncc2)n1	-3&1	-10&-9	13%	-8&1	-0.5&2.3	-20%
CC(C)CCNC(=O)C1CCN(S(=O)(=O)c2ccc3c(c2)CC(C)N3C(=O)C2CCC2)CC1 (configuration not stated)	2	-5	25%	-1	1.0	-16%
Cc1cc(SCC(=O)OCC(=O)N(C)C2CCS(=O)(=O)C2)c(C)cc1Br (configuration not stated)	-1	8	9%	0	2.6	-7%
CCOC(=S)N/C(=N\S(=O)(=O)c1ccccc1)c1ccccc1	4	-16	-63%[inhibitor]	6	-5.8	2%
CCOC(=O)c1ccc(N2C(=O)C(O)=C(C(C)=O)C2c2ccccc2)cc1 (configuration not stated)	-6	-5	?	8	3.1	-16%
COc1cc(-c2c(C#N)c(N)nc3c2CCCC3)ccc1O	-16	-19	-26%	-7	0.6	-5%
CCNC(=O)c1sc(=S)n(CC)c1N	-3	-19	-41%[inhibitor]	-1	-2.9	5%
O=C(NCCc1ccc(Cl)cc1)Nc1ccc(Cl)cc1	-1	-3	-11%	/	0.2	6%
O=C(Nc1ccccc1Br)c1cccc2ccccc12	7	6	-5%[15.4 µM]	11	-1.6	-19%
Cc1cccc(N=C2NN=C(c3ccc4c(c3)OCCO4)CS2)c1	-21	4	23%	?	-1.5	9%
Cc1cc(Cl)ccc1NC(=O)CN(C)C1=NS(=O)(=O)c2ccccc21	-2	-3	-2%	-12	9.3	8%
CC1CCN(C(=O)C(C)c2ccc([N+](=O)[O-])cc2)CC1 (configuration not stated)	3	-4	-5%[15.4 µM]	-4	1.1	-1%
O=C(CN1CCC(NC(=O)c2ccco2)CC1)Nc1cccc2ccccc12	-17	-10	19%	-5	-1.6	1%
Nc1n[nH]c(N)c1N=Nc1cccc(C(F)(F)F)c1	-13	5	?	-1	-6.7	15%
COc1cc(OC)c(C(=O)Nc2ccc(N(C)C)cc2)cc1OC	-21	?	-8%	-20	6.0	?
CCOc1ccccc1N1CN(Cc2ccccc2)CNC1=S	14	-3	9%[15.4 µM]	0	-12	6%
C=CCn1c(SCC(=O)Nc2ccccc2F)nnc1C(C)NC(=O)c1ccccc1F (configuration not stated)	4	-13	0%[15.4 µM]	9	-7.2	6%
Cc1ccc(-c2cn3cccnc3n2)cc1NC(=O)c1cccs1	-4	-10	-8%	3	-1.4	-15%
O=C(O)c1ccccc1C(=O)NCCc1c(C(=O)O)[nH]c2ccc(F)cc12	3	-1	-6%[15.4 µM]	7	-2.9	0%
CC(COc1cccc2ccccc12)CN1CCN(C)CC1 (configuration not stated)	-10	-22	?	-14	-1.7	17%
O=C(Nc1ccccc1-c1nnn(CC(=O)N2CCCc3ccccc32)n1)c1ccc(Cl)cc1	-1	-9	-3%	-1	-0.4	0%
O=C(CCn1c(=O)oc2ccccc21)NCCCN1CCOCC1	-1	-4	28%	10	-3.7	10%
Cc1ccc(S(=O)(=O)N2CC=C(N)N2)cc1	9	-12	21%	1	-4.1	-5%

Exported with values ahead of the structure: six of the compounds above
Six1-Eya2 blk	D2 potentiator	gsp ag	CtBP-E1A blk	D2 ag	gsp antagonist	Compound
-1	-4	28%	10	-3.7	10%	O=C(CCn1c(=O)oc2ccccc21)NCCCN1CCOCC1
-3	-19	-41%[inhibitor]	-1	-2.9	5%	CCNC(=O)c1sc(=S)n(CC)c1N
-21	?	-8%	-20	6.0	?	COc1cc(OC)c(C(=O)Nc2ccc(N(C)C)cc2)cc1OC
14	-3	9%[15.4 µM]	0	-12	6%	CCOc1ccccc1N1CN(Cc2ccccc2)CNC1=S
2	0	30%	16	-2.0	8%	CCN(CC)S(=O)(=O)c1ccc(Cl)c(NC(=O)COc2ccc(OC)cc2[N+](=O)[O-])c1
4	-16	-63%[inhibitor]	6	-5.8	2%	CCOC(=S)N/C(=N\S(=O)(=O)c1ccccc1)c1ccccc1

Further records follow:
SMILES	Six1-Eya2 blk	D2 potentiator	gsp ag	CtBP-E1A blk	D2 ag	gsp antagonist
CCCOP(=O)(OCCC)C(Nc1ccc(C(C)C)cc1)c1ccc([N+](=O)[O-])cc1 (configuration not stated)	?	-18	-23%	?	-4.3	4%
CCOC(=O)c1ccc(NC(=S)N(CCCN2CCCCC2)Cc2ccco2)cc1	-7	-16	1%[15.4 µM]	5	-0.7	2%
O=C(NNC(=O)c1nc(Cl)ccc1Cl)c1ccc(F)cc1	-2	-5	-19%	5	0.8	10%
O=C1CN(C(=O)CNCc2cccc(Cl)c2)c2ccccc2N1	5	-10	-5%	3	-2.7	11%
COc1ccccc1N1CCN(Cc2cn[nH]c2-c2ccc(F)cc2)CC1	-2	-34	-4%[15.4 µM]	-1	5.3	0%
Cc1ccc(S(=O)(=O)CCSc2n[nH]c(=O)n2-c2ccccc2)cc1	3	-6	13%[15.4 µM]	9	-0.5	-21%
COc1ccc(NC(=S)N2CCC(C(=O)c3ccc(Cl)cc3)CC2)cc1	0	-3	-27%	/	-1.2	5%
O=C(c1cccs1)N1CCN(Cc2ccccc2)CC1	6	24	3%[15.4 µM]	0	41*	0%
CCC(C)CCCCNC1=NCCS1 (configuration not stated)	-1	-12	9%[15.4 µM]	5	-1.8	-1%
CCN(CC)c1ccc(NC(=O)CSc2nnc(N)s2)cc1C	-3	1	-2%	-1	6.7	-4%
CC(Sc1nnc(C2CC2)n1C1CC1)C(=O)Nc1ccc(C(N)=O)cc1 (configuration not stated)	0	-3	-15%	5	-4.0	17%
COc1cccc(-n2nnc3c(=O)n(CC(=O)N4CCCc5ccccc54)cnc32)c1	3	-2	-22%	5	-2.1	1%
O=C(N/N=C/c1cc(Cl)cc([N+](=O)[O-])c1O)c1cc(-c2ccccn2)nc2ccccc12	-11	-6	-2%	20	-1.6	-8%
Cc1cc(C)nc(NS(=O)(=O)c2ccc(N3C(=O)c4ccccc4C3=O)cc2)n1	-3	1	?	-1	0.3	13%
CC(NC(=O)c1ccccc1F)C1CC1 (configuration not stated)	7	2	-1%[15.4 µM]	8	-2.2	-9%
Cc1cc(=O)oc2c(C)c(OC(C)C(=O)NCC3CCC(C(=O)O)CC3)ccc12 (configuration not stated)	3	-15	/	3	-4.2	2%
C=CCNC(=O)CSc1nc2sc(C)c(C)c2c(=O)[nH]1	5	5	?	-3	-6.7	3%
Cc1ccc(C(=O)O)cc1NC(=O)c1ccc2c(c1)C(=O)N(c1ccc([N+](=O)[O-])cc1)C2=O	-2	10	-20%[15.4 µM]	8	-1.2	11%
CCOc1cccc(CN2CCC(Oc3ccc(C(=O)N4CCCC4)cc3)CC2)c1	-4	-27	-9%	-7	-1.9	7%
Cc1cccc(OCCCC(=O)NNC(=O)c2ccccn2)c1	?	1	0%	/	-4.8	14%
COc1ccc(-n2c(SCC(=O)Nc3cc(C)on3)nc3c([nH]c4ccccc43)c2=O)cc1	1	0	19%	6	1.0	4%
N/C(=N\O)C1COc2ccccc2O1 (configuration not stated)	4	-13	0%	3	-0.2	-2%
CCC(C)N(C(=O)COc1ccccc1C(=O)NCc1ccccc1)C1CCS(=O)(=O)C1 (configuration not stated)	3	-8	-20%	-4	0.6	-5%
CCOc1ccc(CCNC(=O)CN2C(=O)COc3ccc(S(=O)(=O)N4CCOCC4)cc32)cc1	2	-12	?	3	-9.8	9%
CCCNC(=O)C1CCN(S(=O)(=O)c2ccc3nc4c(c(C(=O)O)c3c2)CCCCC4)CC1	-7	0	14%	4	-4.0	10%
Further compounds:
SMILES	Six1-Eya2 blk	D2 potentiator	gsp ag	CtBP-E1A blk	D2 ag	gsp antagonist
CCC(C)C(=O)Nc1nnc(SCC(=O)Nc2ccc(F)cc2)s1 (configuration not stated)	-1	-5	-28%	/	-0.2	-10%
O=C1CCC(=O)N1c1ccccc1-c1ccccc1	-1	-5	-2%	3	0.8	1%
COc1ccccc1-c1nnc(SC)n1C	1	0	14%	3	-0.4	8%
CCCCn1c(N)c(N(C(=O)CSc2nncn2-c2ccccc2)C2CCCC2)c(=O)[nH]c1=O	7	-1	-37%[inhibitor]	-11	-2.4	10%
Fc1ccc(-n2nnc(-c3ccccc3)n2)cc1	-3	-2	5%	19	0.5	2%
CCC(C)NC(=O)NC1C(NC(=O)NC(C)CC)N(C)C(=O)N1C (configuration not stated)	1	4	20%	3	-2.7	4%
Cc1cc(NC(=O)C(C)Sc2nnc(NCc3ccco3)s2)no1 (configuration not stated)	-4	-1	16%	1	0.9	-3%
CC(=O)CSc1nnc(-c2ccncc2)n1C	3	1	-1%	6	1.7	-7%
Cc1ccc(N(CC(=O)NC2CCCCC2)C(=O)Cn2nnc(-c3ccc(C)o3)n2)cc1	2	-6	24%[15.4 µM]	6	-1.2	-53%
COc1ccc(CNC(=O)CN(C(=O)CCC(=O)Nc2nccs2)c2ccc3c(c2)OCO3)cc1	-2	-11	7%[15.4 µM]	-14	-1.5	6%
COc1ccc(Cl)cc1NC(=O)CSc1nncn1-c1cccnc1	11	-3	-52%	-2	0.5	10%
CC(C)C(=O)Nc1ccc2c(c1)oc1ccccc12	-2	6	-8%	-3	-2.6	-21%
CCc1ccccc1NC(=O)CCC(=O)Nc1nnc(C(C)C)s1	-3	-13	2%	-15	-1.3	3%
COc1ccc(N2CCN(Cc3nc4c(c(=O)n(C)c(=O)n4C)n3Cc3ccccc3C)CC2)cc1	0	-4	-35%[inhibitor]	1	2.0	-9%
Nc1[nH]n(-c2ccccc2)c(=O)c1N=Nc1ccc2c(c1)OCO2	?	-8	?	-21	-3.6	?
c1coc(-c2nnc(-c3ccco3)nn2)c1	?	-7	27%	-18	5.7	0%
CCN(CC)CCNC(=O)c1ccc(N2CCCCC2)c(NS(=O)(=O)c2ccc(C)cc2)c1	0	-26	-4%	-10	-4.8	16%
CCOc1ccccc1C1NC(=O)NC(C)=C1C(=O)OC1CCCCC1 (configuration not stated)	0	3	7%	-2	-0.1	-12%
COc1ccc(CN(C(=O)COc2ccccc2)c2ccccc2C(=O)O)cc1	0	-8	15%	/	-0.3	-5%
CC1CCCCN1S(=O)(=O)c1ccc(C(=O)Nc2ccccc2-c2nc3ccccc3s2)cc1 (configuration not stated)	9	-1	3%	7	-7.6	3%
Cc1ccccc1-n1c(=O)cc(NCc2ccc3c(c2)OCO3)[nH]c1=O	-1	-1	-30%	5	2.4	4%
CCC1(c2ccccc2)NC(=O)N(CC(=O)Nc2cccnc2Cl)C1=O (configuration not stated)	5	0	?	/	-0.9	7%
O=C(CSc1nccc(=O)[nH]1)NC1CCCCCCC1	3	2	-14%	-3	0.3	13%
COC(=O)c1ccc(/C=C/c2c(-c3ccsc3)sc3ccccc23)cc1	3	-4	/	-3	-1.4	-13%
